Insulin prom inh = TRM-6 insulin promoter activity inhibition. TRM-6 cells (human fetal islet line), insulin promoter-eGFP reporter, imaging; reporter expression induced with tamoxifen. inhibition, % at 2 µM. 0.9% of 130,000 active. AID 1273;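 active = inhibition above the mean plus 3 SD, with well images judged a real hit on visual review, cut at about 60% in these data, passing the limit was not always enough; inconclusive = inhibition over the cutoff but images rejected on review; inactive = inhibition not above the cutoff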
PKD1 kinase inh = PKD1 (human) kinase inhibition. Q15139. PKD1 kinase fluorescence polarization assay. inhibition, %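 (about 10 µM by stock and volumes)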. 0.056% of 200,000 active;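 active = inhibition of 50% or more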;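 note: controls were vehicle for no effect and a reference inhibitor for full effect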
Target sequence (Q15139 whole entry, looked up): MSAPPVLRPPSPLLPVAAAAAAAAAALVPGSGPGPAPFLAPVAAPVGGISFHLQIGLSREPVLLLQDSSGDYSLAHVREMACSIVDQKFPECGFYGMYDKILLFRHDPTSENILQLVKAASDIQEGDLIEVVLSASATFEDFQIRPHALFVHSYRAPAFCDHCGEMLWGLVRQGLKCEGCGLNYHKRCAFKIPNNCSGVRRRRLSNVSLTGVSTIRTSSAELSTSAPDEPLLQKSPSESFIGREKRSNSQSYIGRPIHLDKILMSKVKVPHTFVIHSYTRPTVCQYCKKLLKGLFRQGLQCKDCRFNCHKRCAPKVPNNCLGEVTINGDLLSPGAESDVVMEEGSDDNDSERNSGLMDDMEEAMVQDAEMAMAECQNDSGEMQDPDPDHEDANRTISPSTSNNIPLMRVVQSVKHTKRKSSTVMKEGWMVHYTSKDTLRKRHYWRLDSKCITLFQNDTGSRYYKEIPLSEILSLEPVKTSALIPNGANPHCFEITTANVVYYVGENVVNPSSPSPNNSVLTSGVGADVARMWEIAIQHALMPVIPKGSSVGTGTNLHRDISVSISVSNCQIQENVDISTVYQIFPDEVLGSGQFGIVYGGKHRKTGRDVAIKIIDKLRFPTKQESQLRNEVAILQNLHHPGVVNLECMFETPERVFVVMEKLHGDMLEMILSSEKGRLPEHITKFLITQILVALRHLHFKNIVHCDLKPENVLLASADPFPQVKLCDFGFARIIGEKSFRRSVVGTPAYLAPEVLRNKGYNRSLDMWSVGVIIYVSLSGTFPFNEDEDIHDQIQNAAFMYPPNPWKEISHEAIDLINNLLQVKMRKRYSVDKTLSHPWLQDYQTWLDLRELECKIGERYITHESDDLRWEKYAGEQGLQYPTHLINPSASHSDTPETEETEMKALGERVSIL
HSV replic up = increases HSV replication in cells | HSV replication augmentation in cells, fold increase | maximum fold increase | 0.005% of 220,000 active | AID 1956;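 active = peak rise of 1.5-fold or more in the series; inconclusive = self-fluorescent or not available for retest; tested in PC3 cells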;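 note: first round at 10 µM; read as green reporter fluorescence; hits show the peak of a series up to 25 µM; 1 = signal of infected wells without compound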
RGS16-Gao = regulators of human RGS16-Galphao interaction; bead-based flow cytometry RGS16-Galphao binding, fluorescence; actives lie on both sides; binding response (% of control), % at 10 µM; 0.38% of 220,000 active; AID 1441;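 active = below 25% or above 175%, edge rows of some plates excepted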;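 note: Galphao activated by GDP with aluminum fluoride before binding; 100% = wells without compound and 0% = beads without RGS; some results beyond the cut were filed as inactive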
GALR2 ag = activates the human galanin receptor 2 | GALR2-expressing cells, agonist activation read-out | O43603 | activation, %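 (tested at 5 µM)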 | 0.48% of 140,000 active;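 active = above mean plus 3 SD of all compounds, about 5% in these data, not always enough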;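 note: 0% = vehicle buffer wells and 100% = reference agonist at full effect; tested in CHO reporter cells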
Insulin prom inh cell count = also measured in Insulin prom inh; calls as there; normalized cell count, %; measured here: cell count, toxicity; reference of the scale not given here;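 cells exposed to compound for 48 h; stained nuclei by imaging scaled within each plate; lower means fewer cells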
HSV replic up primary fold = also measured in HSV replic up; calls as there; fold increase; compound at 10 µM; measured here: primary screen fold increase 10 uM; tested in PC3 cells;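 GFP signal in the first replicate; 1 = infected wells without compound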
Active calls of the source: *; i = inactive; u = inconclusive; x = no result given.

SMILES | Insulin prom inh | Insulin prom inh cell count | PKD1 kinase inh | HSV replic up | HSV replic up primary fold | RGS16-Gao | GALR2 ag
CC(=O)c1sc(NC(=O)COc2ccc(C)c(C)c2)nc1C | x | x | -11 | i | 1.1 | 100 | -1.1
Cc1ccc(COc2ccsc2-c2n[nH]c(=S)n2C)cc1 | x | x | 1 | i | 0.95 | 95 | -0.3
Cc1cc2c(C)ccc(C)c2nc1SCC(=O)c1cccs1 | -28 | 150 | 8 | i | 0.91 | 96 | -2.4
CCOc1cc(C2C(C#N)=C(N)Oc3n[nH]c(-c4ccccc4)c32)ccc1O (configuration not stated) | 12 | 99 | 13 | i | 0.92 | 88 | -1.6
Cc1ccc(S(=O)(=O)N[C@H](C(=O)OCC(=O)NC(=O)Nc2ccc3c(c2)OCCO3)C(C)C)cc1 | x | x | 2 | i | 0.8 | 116 | -0.8
COc1cc2c(cc1OC)C(c1ccc3c(c1)OCO3)CC(=O)N2 (configuration not stated) | -24 | 123 | -3 | i | 1.1 | 102 | -0.5
Nn1cnnc1SCC(=O)Nc1ccc(C2CCCCC2)cc1 | x | x | 6 | i | 0.85 | 94 | -0.5
CC(C)(C)OC(=O)N/N=C/c1ccc(Br)cc1 | 14 | 101 | -2 | i | 0.91 | 100 | x
Cc1ccc(Cc2nc(-c3ccccn3)no2)cc1 | -59 | 63 | -8 | i | 0.96 | 102 | -0.7
C/C=C/c1ccc(OCCCNC(C)CC)c(OC)c1 (configuration not stated) | -13 | 66 | 0 | i | 0.96 | 103 | -0.7
COCCn1nnnc1C(C(C)C)N1CCOCC1 (configuration not stated) | 45 | 85 | -6 | i | 0.96 | 86 | -2.4
COCCCn1cnnc1SCc1nc2sc(C(C)=O)c(C)c2c(=O)[nH]1 | x | x | x | i | 1 | 98 | x
CCOc1ccc(C(=O)N/N=C/c2ccc(SC)cc2)cc1 | 50 | 91 | -9 | i | 0.82 | 81 | 0.0
COc1ccc(C(=O)OC2CCN(C)CC2)cc1 | 0 | 199 | -14 | i | 1.1 | 93 | -4.2
Cn1cc(/C=C/C(=O)N2CCCC(C(=O)c3ccc(C(C)(C)C)cc3)C2)cn1 (configuration not stated) | x | x | -2 | i | 1 | 105 | x
O=C(CSc1nnc(-c2cccnc2)n1-c1ccc(SC(F)F)cc1)N1CCCc2ccccc21 | 29 | 133 | -8 | i | 1.1 | 102 | 0.9
CC(C(=O)Nc1ccc(S(=O)(=O)N2CCOCC2)cc1)N(c1ccccc1)S(C)(=O)=O (configuration not stated) | x | x | -7 | i | 1 | 99 | -0.7
O=C(c1ccccc1Cl)N(C(=O)c1ccccc1Cl)c1nccc(-c2cccs2)n1 | 37 | 49 | 4 | i | 0.94 | 99 | -2.6
CSCC[C@H](NC(=O)OCc1ccccc1)C(=O)O | -25 | 94 | -9 | i | 1 | 64 | 0.3
COC(=O)c1cc(NC(=O)c2ccoc2C)cc(C(=O)OC)c1 | x | x | 1 | i | 0.8 | 97 | -1.1
CC(C)(C)c1ccc(OCC(=O)N(c2ccccn2)C2CCCCC2)cc1 | 0 | 55 | -6 | i | 1.1 | 72 | 0.5
CN1CCCN(Cc2nc(-c3cccc(C(F)(F)F)c3)no2)CC1 | x | x | 0 | i | 0.95 | 103 | x
CCOc1cc(C(=S)N2CCN(C)CC2)ccc1OCC(=O)N1CCOCC1 | -25 | 275 | -6 | i | 1 | 101 | 0.7
Cc1ccc(C2C(C#N)=C(N)Oc3n[nH]c(C)c32)cc1 (configuration not stated) | x | x | -6 | i | 1.1 | 93 | -0.9
Nc1nonc1C(=Nc1ccccc1)NO | 0 | 99 | -13 | i | 1 | 105 | -1.1
CCn1c(SCC(=O)c2ccc3c(c2)Cc2ccccc2-3)nnc1-c1ccc(N)cc1 | 46 | 129 | 2 | i | 1 | 89 | -0.8
O=C(CNC(=O)c1ccncc1)N/N=C/c1ccc(Br)cc1 | x | x | x | i | 1.2 | 97 | x
COC(=O)c1cccc(NC(=O)Cn2cnc3ccccc3c2=O)c1 | x | x | -5 | i | 0.87 | 102 | -2.1
O=C(c1ccc2c(c1)OCO2)N1CCN(c2ccccc2F)CC1 | 66 | 31 | 4 | i | 0.7 | 107 | -2.1
CC(C)c1ccc(N(C(=O)C(F)(F)F)C(C(=O)NC2CCCCC2)c2ccncc2)cc1 (configuration not stated) | x | x | -9 | i | 0.89 | 77 | -1.0
COc1cccc(/C=C/C(=O)c2ccc(NS(=O)(=O)c3ccc(C)cc3)cc2)c1 | x | x | 1 | x | x | 97 | -0.6
CC(=O)NC(=S)Nc1cc(C(F)(F)F)ccc1N1CCOCC1 | 13 | 88 | -7 | i | 0.93 | 100 | -0.3
CN(c1ccc(C(=O)Nc2ccc3c(c2)OCO3)cc1)S(C)(=O)=O | x | x | x | i | 0.98 | 97 | x
CCOC(=O)c1ccc(NC(=O)CCc2nc(-c3ccc(C)cc3)no2)cc1 | -5 | 180 | -18 | i | 0.7 | 104 | -2.0
CCOC(=O)c1c(NC(=O)CCC(=O)O)sc2c1CCCCC2 | 0 | 159 | -10 | i | 0.93 | 77 | -1.3
Cc1sc(NC(=O)/C=C/c2ccc3c(c2)OCO3)nc1-c1ccccc1 | x | x | -2 | i | 0.91 | 106 | -2.6
Cc1nn(C)cc1CN(C)C(=O)c1nn2c(c1Cl)NC(c1cccs1)CC2C(F)(F)F (configuration not stated) | 6 | 106 | 0 | i | 1 | 103 | 0.6
CCN(CC)C(=O)CSCC(=O)Nc1ccccc1 | -38 | 102 | 4 | i | 1.1 | 119 | -1.4
C(=N\Nc1ccccc1)/c1nc2ccccc2s1 | x | x | x | i | 0.95 | 106 | x
CSc1nc(Oc2ccc(C)cc2)cc(C(F)(F)F)n1 | 7 | 61 | -11 | i | 1 | 97 | -2.0
N#Cc1c(N)nc2c(c1-c1ccccc1)CCCC2 | 19 | 94 | 1 | i | 1 | 101 | -2.5
CS(=O)(=O)c1ccc2nc(NC(=O)c3ccc(=O)[nH]c3)sc2c1 | x | x | x | i | 1.1 | 99 | x
CCOc1ccc2oc(-c3ccccc3)c(C(=O)N(C)C)c2c1 | 64 | 130 | -11 | i | 1.3 | 100 | -3.0
COc1ccccc1Cn1c(C)nc2ccccc21 | x | x | x | i | 0.68 | 99 | x
Cc1ccsc1/C=N/NC(=O)CNC(=O)c1ccco1 | -8 | 67 | -1 | i | 1 | 103 | x
CCc1cc2cc(C(=O)Nc3ccc(C)cc3)sc2s1 | -156 | 60 | -4 | i | 0.82 | 106 | 2.9
Nc1ccc2oc(-c3cccc(Br)c3)nc2c1 | x | x | -3 | i | 0.91 | 95 | 0.2
Cc1ccc(CCN2C(=O)c3ccccc3C2C(=O)NCc2cccnc2)cc1 (configuration not stated) | -56 | 87 | 0 | i | 1.1 | 89 | x
O=C(Cc1ccc(-n2c(=S)[nH]c3ccccc3c2=O)cc1)N1CCN(c2ccccc2)CC1 | -17 | 131 | -6 | i | 0.81 | 104 | -0.3
COc1ccccc1NC(=O)N1CCCC1C(=O)NCc1ccccc1F (configuration not stated) | -50 | 99 | 0 | i | 1 | 103 | -1.2
COc1ccc(Cn2c(=O)[nH]c3cc(C(=O)Nc4ccc(N5CCN(C)CC5)cc4)ccc32)cc1 | -4 | 107 | -2 | i | 0.68 | 96 | -0.3
NC(=O)CCN1CCN(CCOC2Cc3cc(Cl)ccc3Sc3ccccc32)CC1 (configuration not stated) | -31 | 123 | 16 | i | 0.71 | 111 | 0.5
CCOC(=O)C1(C)C=C(Nc2ccc(NC(C)=O)cc2)C(=O)N1c1ccc(NC(C)=O)cc1 (configuration not stated) | x | x | x | i | 0.94 | 97 | x
O=C(CN1C(=O)C2C3CC(C(Br)C3Br)C2C1=O)N1CCN(Cc2ccccc2)CC1 (configuration not stated) | x | x | x | i | 1.2 | 94 | x
O=C(CC(c1ccccc1)c1cc(Br)ccc1O)N1CCCCC1 (configuration not stated) | x | x | x | i | 0.98 | 96 | x
O/N=C1\CCCc2ccccc21 | x | x | -1 | i | 0.96 | 97 | x
Cc1ccc(S(=O)(=O)Cn2nnnc2C(C(C)C)N2CCN(c3nc4ccccc4s3)CC2)cc1 (configuration not stated) | 12 | 167 | -4 | i | 0.98 | 112 | 2.2
Cc1cc(=O)oc(C)c1C(=O)NCc1ccco1 | 9 | 89 | -1 | i | 1 | 104 | -0.8
CCOc1ccc2nc(NCCNC(=O)CC)c(C#N)cc2c1 | x | x | -7 | i | 1.2 | 97 | 0.6
O=C(CN1c2ccccc2Sc2ccccc21)NNC(=O)Nc1ccc(Cl)cc1 | x | x | x | i | 0.87 | 103 | x

Part of the list above in order of molecular weight, smallest number first.
SMILES | Insulin prom inh | Insulin prom inh cell count | PKD1 kinase inh | HSV replic up | HSV replic up primary fold | RGS16-Gao | GALR2 ag
Cc1cc(=O)oc(C)c1C(=O)NCc1ccco1 | 9 | 89 | -1 | i | 1 | 104 | -0.8
COc1ccccc1Cn1c(C)nc2ccccc21 | x | x | x | i | 0.68 | 99 | x
CS(=O)(=O)c1ccc2nc(NC(=O)c3ccc(=O)[nH]c3)sc2c1 | x | x | x | i | 1.1 | 99 | x
O=C(CN1c2ccccc2Sc2ccccc21)NNC(=O)Nc1ccc(Cl)cc1 | x | x | x | i | 0.87 | 103 | x
CCOC(=O)C1(C)C=C(Nc2ccc(NC(C)=O)cc2)C(=O)N1c1ccc(NC(C)=O)cc1 (configuration not stated) | x | x | x | i | 0.94 | 97 | x
COc1ccc(Cn2c(=O)[nH]c3cc(C(=O)Nc4ccc(N5CCN(C)CC5)cc4)ccc32)cc1 | -4 | 107 | -2 | i | 0.68 | 96 | -0.3
O=C(CN1C(=O)C2C3CC(C(Br)C3Br)C2C1=O)N1CCN(Cc2ccccc2)CC1 (configuration not stated) | x | x | x | i | 1.2 | 94 | x

Later entries.
SMILES | Insulin prom inh | Insulin prom inh cell count | PKD1 kinase inh | HSV replic up | HSV replic up primary fold | RGS16-Gao | GALR2 ag
Cc1cc(Br)c(S(=O)(=O)NCCN2CCOCC2)cc1C | x | x | -2 | i | 0.94 | 100 | 0.0
CCOP(=O)(c1ccccc1)C1(O)CCCCC1 (configuration not stated) | 36 | 87 | -10 | i | 0.87 | 99 | -1.3
CCNC(=O)C1CCCN1S(=O)(=O)c1ccc(C)cc1 (configuration not stated) | -38 | 102 | 1 | i | 0.67 | 107 | -1.5
COc1ccc(CCNC(=O)CSc2nn(-c3ccccc3)c(=S)s2)cc1OC | -10 | 83 | -1 | i | 0.94 | 122 | 1.6
COC(=O)c1sccc1NC(=S)OC | x | x | x | i | 1.1 | 96 | x
COc1ccc(-n2c(C)c(C(C)=O)c3cc(OCC(N)=O)ccc32)cc1 | x | x | -3 | i | 0.96 | 113 | x
C/C(=N/NC(=O)c1cccs1)c1ccc(NC(=O)COc2ccc(Cl)cc2)cc1 | -29 | 100 | -4 | i | 0.87 | 98 | -1.4
Cc1ccccc1C(C(=O)NCc1ccccc1)N(Cc1ccco1)C(=O)c1ccccn1 (configuration not stated) | -17 | 52 | 2 | i | 1 | 82 | -0.8
CCn1c(SCC(=O)NCc2ccc(C)cc2)nnc1-c1ccncc1 | x | x | 1 | i | 0.89 | 104 | -1.2
OCc1nn2c(c1Br)NC(c1ccccc1)CC2C(F)(F)F (configuration not stated) | 48 | 120 | -10 | i | 0.92 | 102 | -0.8
CCCC1/C(=N/O)CC(c2ccccc2)NC1c1ccccc1 (configuration not stated) | -50 | 171 | -6 | i | 0.9 | 78 | x
CC(=O)Nc1ccc(NC(=O)Oc2ccccc2)cc1 | -33 | 85 | -1 | i | 1.1 | 98 | -1.5
CC12CCC(C(=O)NCCc3ccccc3)(OC1=O)C2(C)C (configuration not stated) | -41 | 113 | -2 | i | 0.95 | 105 | x
COc1ccc(C)cc1S(=O)(=O)N(CC(=O)O)c1ccccc1 | -13 | 105 | 1 | i | 0.96 | 99 | 0.8
Cc1ccc(NC(=S)NCc2ccc3c(c2)OCO3)c(C)c1 | -65 | 99 | -9 | u | x | 103 | -1.1
COc1ccc(N(CC(=O)NC2CCCCC2)C(=O)CNC(=O)c2ccco2)c(OC)c1 | 29 | 124 | -1 | i | 0.91 | 104 | -1.8
COC(=O)c1sccc1NC(=O)CSc1ccccc1NS(=O)(=O)c1ccc(Br)cc1 | x | x | 2 | i | 0.88 | 103 | -0.7

2 records picked at random from the list so far, as already listed:
SMILES | Insulin prom inh | Insulin prom inh cell count | PKD1 kinase inh | HSV replic up | HSV replic up primary fold | RGS16-Gao | GALR2 ag
Cc1ccc(Cc2nc(-c3ccccn3)no2)cc1 | -59 | 63 | -8 | i | 0.96 | 102 | -0.7
C/C(=N/NC(=O)c1cccs1)c1ccc(NC(=O)COc2ccc(Cl)cc2)cc1 | -29 | 100 | -4 | i | 0.87 | 98 | -1.4
